Vif A3G – inhibitors of Vif binding to APOBEC3G peptide, primary screen, biochemical, TR-FRET, GST-Vif 1-94, biotin-A3G peptide, dose response retest (AID 1117319). TR-FRET GST-Vif / biotin-A3G peptide binding; higher % means a stronger effect; test concentration not given here; strong numbers were not always called active. one-dose inhibition, %; IC50 in µM for titrated hits. 260,000 compounds, 0.57% hits;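 active = above the screen mean plus three standard deviations and confirmed in dose response; inconclusive = results disagree or hit not tested in dose response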;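 also: Vif residues 1-94 fused to GST binding biotinylated APOBEC3G peptide 110-148; 0% = full assay without inhibitor and 100% = GST in place of GST-Vif; retest series ran down from 100 µM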
Calb FLC – C. albicans growth inhibition with fluconazole, primary screen, CaCi-2 strain, Alamar Blue fluorescence. C. albicans CaCi-2 (fluconazole-resistant clinical isolate) + fluconazole, 48 h. growth inhibition, % (concentration not given with the values). 300,000 compounds, 0.57% hits. AID 1979, 2009;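 active = most replicates above 75%; inconclusive = exactly half above 75%; inactive = most below 75%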;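 also: all wells also contain fluconazole at 8 µg/ml as a sub-toxic cotreatment; 0% = median of DMSO wells and 100% = median of geldanamycin control wells; wells of about 8 µL received 7.5 nL stock; the first replicate is given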
Beta2AR agonist – beta2AR agonists driving receptor internalization, primary screen, cell-based, FAP fluorogen, flow cytometry. Beta-2 adrenergic receptor (Homo sapiens), P07550. Am2.2-beta2AR cells; reference of the scale not given here. response, % (no concentration beside the values). 340,000 compounds, 0.43% hits;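 active = response above a set limit, near 3 SD of response in nonfluorescent compounds, cut at about 42% in these data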;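 also: stock transfer was 100 nL into about 11 µL; a reference agonist was the positive control; negative values mostly stem from fluorescent compounds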
Target sequence (P07550 whole entry, looked up): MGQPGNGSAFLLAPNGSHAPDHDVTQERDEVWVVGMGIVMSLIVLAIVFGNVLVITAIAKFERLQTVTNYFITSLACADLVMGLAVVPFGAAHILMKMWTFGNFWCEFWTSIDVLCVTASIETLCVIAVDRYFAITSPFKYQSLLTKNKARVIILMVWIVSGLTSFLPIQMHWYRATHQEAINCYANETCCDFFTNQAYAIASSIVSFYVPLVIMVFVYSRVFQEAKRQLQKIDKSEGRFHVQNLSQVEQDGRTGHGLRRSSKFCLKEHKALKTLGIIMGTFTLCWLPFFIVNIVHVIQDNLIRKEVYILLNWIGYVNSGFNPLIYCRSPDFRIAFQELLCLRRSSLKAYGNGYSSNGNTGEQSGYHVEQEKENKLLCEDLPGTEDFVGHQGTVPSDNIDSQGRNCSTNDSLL
RanGTP-Impb inh – inhibitors of RanGTP-importin-beta interaction, primary screen, biochemical, FRET, CFP-Ran, YFP-importin-beta, homogeneous; cell-free CFP-Ran/YFP-importin-beta FRET ratio; 300,000 compounds, 1.1% hits; inhibition, % (concentration not given with the values);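 active = most replicates above 15%; inconclusive = exactly half above 15%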;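 also: 0% = DMSO wells and 100% = Ran loaded with GDP instead of GTP; wells of about 40 µL received 100 nL stock; the first replicate is given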
LANA-H2A inh – blockers of LANA interaction with H2A/H2B – biochemical, FP readout, HTS, primary screen; Protein LANA1 (Human herpesvirus 8 type P (isolate GK18)), Q9QR71; cell-free LANA-H2A/H2B peptide, fluorescence polarization; inhibition, % (no concentration beside the values); 320,000 compounds, 0.6% hits; in the data active = inhibition mostly above about 10%, no sharp cut-off; inactive = mostly below about 6.7%;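 also: stock transfer was 7.5 nL into about 10 µL; 0% = median of vehicle wells and 100% = median of positive control wells; one replicate is shown; the record names a cut of 25% in any replicate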
HNF4A DNA FP – change in binding of human HNF4A to DNA, primary screen, biochemical, fluorescence polarization, FITC-DNA. Hepatocyte nuclear factor 4-alpha (Homo sapiens), P41235. 1 h. activity change, % at 10 µM. 360,000 compounds, 0.3% hits; in the data active = activity change above about 30%, passing the limit was not always enough;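 also: controls were the assay level and a saturating level of protein; the project sought stronger binding though the title names inhibitors; some compounds called inactive have numbers as strong as hits; positive values seem to mean higher polarization but the record does not say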
Target sequence (P41235 whole entry, looked up): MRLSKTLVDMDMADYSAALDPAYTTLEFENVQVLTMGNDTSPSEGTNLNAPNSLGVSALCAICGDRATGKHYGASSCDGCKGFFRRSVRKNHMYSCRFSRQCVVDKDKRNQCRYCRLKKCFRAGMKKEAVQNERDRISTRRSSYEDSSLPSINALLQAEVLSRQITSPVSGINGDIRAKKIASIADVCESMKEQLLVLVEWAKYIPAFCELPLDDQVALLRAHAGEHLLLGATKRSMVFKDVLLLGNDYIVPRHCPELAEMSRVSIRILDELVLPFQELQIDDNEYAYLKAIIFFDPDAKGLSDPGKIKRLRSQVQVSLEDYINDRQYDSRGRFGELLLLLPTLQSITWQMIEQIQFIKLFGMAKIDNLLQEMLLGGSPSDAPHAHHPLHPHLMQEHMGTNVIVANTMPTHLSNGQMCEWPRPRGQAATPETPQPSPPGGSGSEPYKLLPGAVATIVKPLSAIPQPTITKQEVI
ALR inh – inhibitors of human ALR sulfhydryl oxidase, primary screen, biochemical, H2O2 detection, HRP-luminol luminescence, single point. FAD-linked sulfhydryl oxidase ALR (Homo sapiens), P55789. purified ALR, DTT oxidation. inhibition, % (test concentration not listed). 290,000 compounds, 3.8% hits;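 active = mean and each replicate at 75% or more; inconclusive = only one of the two met; inactive = neither met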;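 also: stock transfer was 7.5 nL into about 7.5 µL; 0% = neutral wells and 100% = wells with inactivated enzyme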
Target sequence (P55789 whole entry, looked up): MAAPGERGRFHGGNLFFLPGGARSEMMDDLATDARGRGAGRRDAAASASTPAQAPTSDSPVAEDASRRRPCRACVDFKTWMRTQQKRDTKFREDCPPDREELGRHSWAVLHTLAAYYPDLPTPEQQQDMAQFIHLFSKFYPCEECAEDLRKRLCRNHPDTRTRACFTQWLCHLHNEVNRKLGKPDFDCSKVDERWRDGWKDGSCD
An asterisk follows results filed as active; u = inconclusive; x = no result given.

SMILES	Vif A3G	Calb FLC	Beta2AR agonist	RanGTP-Impb inh	LANA-H2A inh	HNF4A DNA FP	ALR inh
O=C(O)CN1C(=O)S/C(=C\c2ccc3c(c2)OCO3)C1=O	x	-7	-2	2.6	2.9	1.7	1
CCOC(=O)C(/C=C(\C#N)C(=O)OCC)=C(/N)N1CCN(c2ccc(Cl)cc2)CC1	u	u	3	-0.5	2.9	-0.7	-3
O=[N+]([O-])c1cc(C(F)(F)F)ccc1Oc1cccnc1[N+](=O)[O-]	1%	-7	-7	2.5	-0.8	2.8	-19
COc1ccccc1C1CCN(C(=O)c2ccc(C(C)(C)C)cc2)CC1	-8%	4	-3	u	-0.1	-0.4	-2
NC(=O)C1(N2CCCCC2)CCN(Cc2nc3ccccc3c(=O)[nH]2)CC1	-1%	-11	10	-0.6	-3.4	1.9	3
CCOCCCNC(=O)C(c1ccc(OC)cc1)N(Cc1ccc2c(c1)OCO2)C(=O)c1cnccn1 (configuration not stated)	-7%	-11	4	-0.9	-1.7	7.3	69
COc1cc(C(=O)OCC(=O)N2CCC(C)CC2)cc2c1OCCO2	x	x	-3	x	-0.1	-2.3	3
O=C1CC(c2ccco2)Cc2nc(Nc3ccc(F)cc3)ncc21 (configuration not stated)	5%	56	-9	u	0.6	-1.1	-23
CC(=O)c1cccc(NC(=O)c2cccc(S(=O)(=O)N(C)C)c2)c1	16%	-5	8	1.0	0.5	0.2	-7
CCOc1cc(/C=C2/C(=N)N3OC(C)=CC3=NC2=O)ccc1OCCOc1ccccc1	-4%	-9	-1	-0.3	0.6	-1.7	-10
O=C(Nc1cc(Br)ccc1O)c1cc(-c2cccs2)on1	x	-13	17	11	0.0	-1.1	x
CCOc1cc(C)nc(N2CCCC(C(=O)NCc3ccccc3F)C2)n1 (configuration not stated)	-6%	-1	4	-4.1	10.0	1.0	-2
CON1C(=O)C(=O)N(OC)C2CCCCCC21 (configuration not stated)	x	-1	6	-2.4	-4.6	5.3	-3
Cc1ccc(C(=O)OCc2nc3ccccc3s2)o1	9%	3	-3	2.0	-5.5	0.7	4
COc1ccccc1C1CCN(Cc2c(C)[nH]c3ccccc23)CC1	2%	7	10	-0.7	0.1	0.5	-5
COC(=O)c1ccccc1NC(=O)N1CCN(Cc2ccco2)CC1	-8%	-17	-6	-2.4	-6.2	-8.7	-17
Cc1c(C(=O)NCCO)sc2nc3n(c(=O)c12)CCC3	4%	-2	2	0.1	-0.1	-2.1	0
Cc1c(NC(=O)c2nn3c(C(F)(F)F)cc(-c4ccccc4)nc3c2Br)c(=O)n(-c2ccccc2)n1C	6%	u	-18	11	-3.3	1.1	3
O=C(NCc1ccc(F)cc1)C(c1ccco1)N(C(=O)c1csnn1)c1ccccc1 (configuration not stated)	x	-9	-5	1.4	-3.9	3.0	-16
C#CCOCCOCCOCCNc1nc(N2CCN(C(=O)Cn3cc(CCCCN)nn3)CC2)nc(N2CCN(C(=O)[C@H](C)n3cc(CCCN=C(N)N)nn3)CC2)n1	-5%	-24	x	0.8	x	x	x
CC(=O)NC1(C2CCCCC2=O)CCCCC1 (configuration not stated)	-7%	-9	6	-4.6	1.5	0.1	-14
O=C(CCS(=O)(=O)c1cccs1)Nc1ccc(C(=O)NC2CCN(Cc3ccccc3)CC2)cc1	-2%	-10	7	0.2	-0.1	9.0	-1
COc1ccc2ccccc2c1CN1CCN(C)CC1	8%	-12	8	0.3	0.3	-1.9	-32
N#Cc1nc(COc2ccccc2)oc1N1CCCC1	-3%	3	-23	0.0	4.0	0.9	-18
COc1cccc(C(=O)NCC(C)(C)SCc2ccc(F)cc2)c1	1%	4	-8	0.4	5.5	2.1	-4
C/C(=N\NC(=O)C(=O)Nc1cccc(C(F)(F)F)c1)c1ccc(Cl)s1	0%	-2	2	x	2.3	0.4	-16
COc1ccc(N(C)C(=O)CCC(=O)Nc2ccc3nc(N4CCOCC4)cc(C)c3c2)c(OC)c1	u	-7	13	2.7	5.8	1.9	x
Cc1cc(C)cc(NC(=O)Nc2ccc(Cl)cn2)c1	0%	-4	8	3.6	1.3	-2.5	-4
Clc1ncc(CSc2ccccc2)s1	-10%	0	6	-1.3	-5.3	2.9	-9
CC1(S(=O)(=O)O)CC(=O)c2ccccc2C1=O (configuration not stated)	x	x	13	-0.3	-6.0	-3.4	93*
O=C1CC[C@@H](CN(Cc2ccccc2)Cc2cn[nH]c2-c2cc3ccccc3o2)N1	12%	1	-2	0.1	-3.5	-0.4	-71
COc1ccc(CC(=O)N/N=C(\C)c2ccc(Br)s2)cc1	x	-4	-3	-0.7	-1.2	-2.6	-9
COc1cc(/C=C(/NC(=O)c2ccccc2)C(=O)Nc2ccccc2)c([N+](=O)[O-])cc1OC	-6%	0	-13	-0.2	-1.6	2.3	-8
COc1ccc(-n2nc(C#N)c(Cl)cc2=O)cc1	11%	x	90*	x	x	6.1	x
CCON1C(=O)CN(C(=O)OC)C1c1ccc(Cl)cc1Cl (configuration not stated)	-6%	-10	1	-0.5	-9.8	0.6	x
Cc1nc(SCC(=O)NCc2ccco2)c2c3c(sc2n1)CCCC3	-9%	x	-25	0.6	-1.0	-1.5	97*
COc1ccc(OC)c2sc(NC(=O)c3ccc(S(=O)(=O)N4CCOCC4)cc3)nc12	-1%	-5	-2	0.3	16	2.1	-16
Nc1ccc2nn(-c3ccc(Cl)cc3)nc2c1	0%	1	7	u	2.1	0.9	-56
CCN1CCN(C(=O)c2cccc(OC3CCN(S(=O)(=O)N(C)C)CC3)c2)CC1	-5%	0	3	-2.1	8.6	1.3	1
CCOC(=O)c1c(NC(=O)CSc2nc3ccccc3s2)sc(C)c1C	3%	-11	-2	u	0.3	9.0	98*
CCCCCC(C)NC(=O)CN1C(=O)NC(C)(c2ccc3ccccc3c2)C1=O (configuration not stated)	x	-14	0	2.5	7.9	1.8	-1
O=c1c2ccccc2nc(-c2ccco2)n1CCCn1ccnc1	0%	23	-14	2.6	2.9	-6.0	2
COc1cccc(C(=O)NN2CC(O)=C(c3nc(C)cs3)C2=N)c1	-1%	0	10	6.3	11	0.0	2
O=C(CCc1nc2ccccc2c(=O)[nH]1)OCC(=O)N1CCN(S(=O)(=O)c2ccccc2)CC1	30%	1	1	6.0	6.2	3.0	0
CCCCOc1ccc(C(=O)NCC(=O)N2CCN(Cc3ccc4c(c3)OCO4)CC2)cc1	-10%	-9	-8	-0.4	x	-1.5	x
COc1ccc(CN2CCC(C(=O)Nc3ccc(Oc4ccccc4)nc3)CC2)cc1F	-5%	-10	-2	-3.2	-0.4	2.6	-13
O=C(NCCCn1ccnc1)c1cccc(S(=O)(=O)Nc2ccc(F)cc2)c1	0%	x	-4	x	x	-0.6	x
COc1ccc(C(=O)Oc2cc(C(=S)N3CCOCC3)ccc2OC)cc1	x	5	-2	-1.8	3.8	-0.6	x
Cc1cc(C(=O)Nc2ccc(S(=O)(=O)N3CCCC3)cc2)no1	x	-9	1	0.0	-89	-1.2	-4
N#CC1=C(SCC(=O)c2ccccc2)NC2=C(C(=O)CCC2)C1c1ccco1 (configuration not stated)	3%	-2	4	-1.0	-3.6	3.0	87*
O=C(c1cc2cc([N+](=O)[O-])ccc2s1)N1CCCCC1	-2%	-36	-9	4.9	-5.5	-0.1	-5
CSc1ncnc2[nH]ncc12	-16%	x	-5	x	x	-0.6	x
COC(=O)c1ccc(C2=NOC(C)(c3sc(-c4ccccc4)nc3C)C2)cc1 (configuration not stated)	-10%	14	1	-0.7	0.6	-0.4	x
Cc1cccc(-c2oc3ccccc3c2C#CCCCCO)c1	x	-18	11	-1.3	4.4	-4.7	11
COc1cccc(OC)c1C(=O)N=c1sc2cc(S(C)(=O)=O)ccc2n1C	14%	17	0	-0.3	0.0	-3.2	-1
Cc1cccc2cc(CN(CCCN(C)C)C(=S)NCCc3ccccc3)c(=O)[nH]c12	-8%	6	8	1.2	-6.8	1.4	x
CC12CCC(C(=O)N(CCC#N)CCC#N)(CC1=O)C2(C)C (configuration not stated)	28%	-8	-3	-0.4	-16	0.9	x
CCOC(=O)C1CCN(Cc2c(O)ccc3ccccc23)CC1	18%	8	-9	-0.3	-0.6	-5.8	38
OC1CN=C2C=CC=CN2C1 (configuration not stated)	10%	-17	-5	2.2	0.2	-3.1	-2
CC(=O)Nc1nonc1NC(=O)COc1ccccc1	18%	18	0	0.1	0.4	4.4	-3

Full records, looked up by structure. Order of screens: Vif A3G | Calb FLC | Beta2AR agonist | RanGTP-Impb inh | LANA-H2A inh | HNF4A DNA FP | ALR inh
N#CC1=C(SCC(=O)c2ccccc2)NC2=C(C(=O)CCC2)C1c1ccco1 (configuration not stated) in the list: 3% | -2 | 4 | -1.0 | -3.6 | 3.0 | 87*
Cc1cccc(-c2oc3ccccc3c2C#CCCCCO)c1 in the list: x | -18 | 11 | -1.3 | 4.4 | -4.7 | 11

Additional compounds follow:
SMILES	Vif A3G	Calb FLC	Beta2AR agonist	RanGTP-Impb inh	LANA-H2A inh	HNF4A DNA FP	ALR inh
O=C(NCCc1nc2ccccc2[nH]1)/C(=C/c1ccco1)NC(=O)c1ccco1	4%	-4	-10	-0.7	4.7	0.8	63
CCOC(=O)c1c(NC(=O)CC)sc(C(C)=O)c1C	-4%	24	3	1.3	-5.1	0.8	-5
O=C(NCCC1=CCCCC1)c1cnsn1	-2%	-10	4	-0.7	-8.2	-0.4	-2
CCN1CCN(Cc2c(O)c(Cl)cc3c(C)cc(=O)oc23)CC1	-1%	27	-3	27*	1.8	-2.2	-9
O=C(NCC1CCCCC1)c1cccc(Br)c1	x	-20	1	-3.0	3.4	-1.1	3
CS(=O)(=O)c1ccccc1-c1nc(-c2ccc(C(F)(F)F)cc2)no1	3%	15	-4	5.5	-0.2	0.4	-14
Cc1ccc(C(C)C)c(OCC(=O)c2c(O)c3ccccc3oc2=O)c1	x	x	-5	5.4	5.7	3.3	94*
COc1ccc(-c2csc(N(CCc3ccccc3)C(=O)COc3ccccc3)n2)cc1	-2%	-7	0	-1.7	-2.4	3.2	5
Cc1ccc(-n2c(SCC(N)=O)nc(O)cc2=O)cc1	-11%	10	0	3.4	-8.8	7.8	0
CC(=O)c1cccc(NS(=O)(=O)c2c(C)noc2C)c1	-2%	25	3	4.2	0.6	-2.8	-11
Cc1c(NC(=S)NC(=O)c2cc3ccccc3o2)cccc1C(=O)O	6%	-8	-7	-5.0	-1.2	-0.2	17
COc1ccc(N(CC(=O)Nc2cccc(C(=O)O)c2)S(=O)(=O)c2c(C)noc2C)cc1	5%	x	-1	x	0.3	-5.5	-9
CC(=O)NCC1CCCN(C(=O)c2oc3c(F)cccc3c2C)C1 (configuration not stated)	-3%	-2	-2	-2.9	6.8	-1.8	1
CC1CCCCN1N=Nc1nc2c([nH]1)c(=O)n(C)c(=O)n2C (configuration not stated)	0%	x	-4	x	x	3.3	x
NC(=O)c1nsc(C(=O)N(c2ccccc2)C(C(=O)NC2CCCCC2)c2ccc(O)cc2)c1N (configuration not stated)	6%	-8	12	0.8	6.4	0.6	x
Cc1ccc(S(=O)(=O)N2CCN(C(=O)CSC3CCCC3)CC2)c(C)c1	8%	5	-4	-2.6	1.7	4.7	-31
Cc1nc(N)sc1-c1csc(N(C)c2ccc(O)cc2)n1	31%	26	2	-7.0	1.3	6.2	61
CCn1nnnc1NCc1cccn1C	33%	-8	4	u	0.6	4.5	-12
COc1cccc2sc3cc(NCC[C@@H]4CCCN4C)ccc3c(=O)c12	x	x	15	x	1.4	2.4	-2
